Screening data (PubChem)
Mtb bLac sens – beta-lactam sensitization of Mtb H37Rv. inhibition, % at 25 µM. 0.27% of 330,000 active. M. tuberculosis H37Rv growth with meropenem, percent inhibition; hits of this screen are not shown here. AID 434955;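 active = about 74% or more and at least 40 points above the plate without the antibiotic, then above 30% in a dose series; inconclusive = first-round hits that could not be retested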;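 note: growth measured after seven days incubation then overnight dye step; 0% = bacteria only wells and 100% = bacteria with antibiotic; twin plates without the antibiotic show which effects depend on it; some results filed as inactive read as strong as hits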
An asterisk follows results filed as active; ? = inconclusive. These rows are one share of the data; rates above refer to the full screens.

SMILES | Mtb bLac sens
N#Cc1ccc(C(=O)N(Cc2ccco2)c2c(N)n(Cc3ccccc3)c(=O)[nH]c2=O)cc1 | -2.2
CCc1noc(C)c1C(=O)OCC(=O)NCc1ccccc1 | -1.7
CC(C)CC1Nc2ncnc(N3CCOCC3)c2N(Cc2ccccc2)C1=O (stereo not given) | -5.7
COC(=O)C1=C(c2ccc(OC(F)(F)F)cc2)C[C@@H]2CC[C@H]1N2C(=O)N1CCOCC1 | 2.5
Cc1ccc(-c2cc(N)nc(-c3ccccc3)c2)cc1 | 50.0
CCc1ccccc1NC(=O)CNC(=O)CCNC(=O)Nc1ccccc1 | 1.0
Cc1ccc(NC(=O)COC(=O)Cc2ccccc2)cc1S(=O)(=O)N1CCOCC1 | -10.2
O=S(=O)(c1ccc(SCc2ccc(Cl)cc2)nc1)N1CCCC1 | 4.4
Cc1cc(C)c(OCC(=O)NCC(c2ccco2)N2CCCCC2)c(C)c1 (stereo not given) | -4.2
COc1ccc(NCC(=O)Nc2cccc(S(=O)(=O)N3CCCC3)c2)cc1Cl | -1.0
c1cc2c(cc1C1OCC3C(c4ccc5c(c4)OCO5)OCC13)OCO2 (stereo not given) | -1.6
COc1ccc(C)cc1NC(=O)CSc1cccc[n+]1[O-] | 0.5
CC1(C)CC(=O)C=C(/C=C/c2ccccc2)C1 | -1.7
CC(c1ccc(F)cc1)n1cc(S(=O)(=O)N2CCCC2)ccc1=O (stereo not given) | 1.8
Cc1noc(C)c1CSCC(=O)Nc1nc2c(F)cc(F)cc2s1 | -2.6
CCNc1nnc(SCC(=O)N2c3ccccc3NC(=O)CC2C)s1 (stereo not given) | -3.4
C=C1C2C[C@@]3([C@@H]1O)[C@@H](C[C@@H]2O)[C@@]12C4[C@@H]3C[C@@H]1[C@@](C)(CC[C@@H]2O)CN4CC | 2.9
CC1CCC2(CC1)NC(=O)N(CC(=O)Nc1cccc(S(=O)(=O)N3CCCC3)c1)C2=O (stereo not given) | 1.0
CCN(CC)S(=O)(=O)c1cc(NC(=O)CSc2nnc(N)s2)ccc1C | -5.3
COC(=O)C1=C(C)N(Cc2ccccc2)C(=NCc2cccc(C(F)(F)F)c2)N[C@H]1c1cccc(C(F)(F)F)c1 | 100.0
CC(=O)Nc1ccc(C=NNC(=O)c2ccc(NS(=O)(=O)c3cccs3)cc2)cc1 | -0.1
CC1CCCCC12NC(=O)N(CC(=O)Nc1cccc(S(=O)(=O)N3CCCCC3)c1)C2=O (stereo not given) | -6.0
O=C(NCc1ccco1)c1cccc2c1C(=O)c1ccc(N3CCC(Cc4ccccc4)CC3)cc1S2(=O)=O | 1.5
CCC(C)Sc1ccc([C@@H]2[C@H]3C(=O)N(CC)C(=O)[C@H]3[C@]3(C(=O)OC)CCCN23)cc1OC (stereo not given in full) | -6.5
CCC1(c2ccc(F)cc2)NC(=O)N(CC(=O)N2CCc3ccccc32)C1=O (stereo not given) | 1.4
CCN(C(=O)COC(=O)c1ccccc1O)c1cccc2ccccc12 | -4.4
CC1(C)CC[C@]2(CO)CC[C@]3(C)C(=CCC4[C@@]5(C)CC[C@H](O)[C@@](C)(CO)C5CC[C@]43C)[C@@H]2C1 (stereo not given in full) | 7.2
COc1ccc(-c2cn(Cc3ccc(C(N)=O)cc3)c(-c3ccncc3)n2)cc1 | 5.9
CC1CCCC(C)N1C(=O)CSc1nc2c(c(=O)n(C)c(=O)n2C)n1C (stereo not given) | 2.3
O=C(Cn1c(CO)nc2ccccc21)NCc1ccc2c(c1)OCO2 | -7.7
Cc1ccc(NC(=O)COC(=O)CC2SC(N3CCCC3)=NC2=O)cc1 (stereo not given) | -6.9
COc1ccc(S(=O)(=O)Nc2cccc3c2O[C@H](CN(C)S(=O)(=O)c2cccs2)[C@@H](C)CN([C@H](C)CO)C3=O)cc1 | -1.5
CC(=O)c1ccccc1NC(=O)C1CCCN(C(=O)c2ccc(Cl)cc2)C1 (stereo not given) | -4.4
COC(=O)c1sc(S(=O)(=O)N2CCN(c3ccccc3F)CC2)c(C(=O)OC)c1C | -4.2
O=C(CSc1ccccc1F)NCC1(N2CCCCC2)CCCCC1 | -6.0
Cc1nn(-c2ccccc2)c(C)c1C(=O)OCC(=O)N(C)c1ccccc1 | 0.6
COc1ccc(CNC(=O)COC(=O)c2sccc2C)cc1OC | 2.1
COc1ccc(CN2CCC(N3CC(C)OC(C)C3)CC2)c(OC)c1OC (stereo not given) | 0.8
Cc1ccc(C)c(Sc2ccc(S(=O)(=O)Nc3ccc(C(=O)O)cc3)cc2)c1 | -11.0
c1ccc(C2(N3CCCCC3)CCCCC2)cc1 | -9.6
Cc1ccc(C(=O)OCC(=O)NCCc2ccccc2)cc1C | -2.9
Cn1c(N)c(C(=O)COC(=O)c2cccc(S(=O)(=O)NCc3ccccc3)c2)c(=O)n(C)c1=O | -8.4
O=C(CN1C(=O)NC2(CCCC2)C1=O)OCc1ccccc1 | -4.2
CCOc1ncccc1C(=O)OCc1csc(CC(=O)Nc2ccccc2C)n1 | 2.1
CC1(C)CC(=O)C(CO)=C(c2cccc3ccccc23)C1=O | -1.2
COc1cccc(C(=O)OCC(=O)NCc2ccc3c(c2)OCO3)c1OC | -10.8
Cc1ccc(NC(=O)CN(C)CC(=O)N(CC(C)C)c2c(N)n(CC(C)C)c(=O)[nH]c2=O)c(C)c1 | -8.0
Cc1ccc(S(=O)(=O)Nc2ccccc2F)cc1C(=O)NCc1ccco1 | 0.2
O=C1CN(C(=O)COC(=O)CCc2ccccc2O)c2ccccc2N1 | -7.2
C=CC[C@H](CC(=O)N(CCO)Cc1ccccc1)C(=O)N[C@H](COC(=O)[C@@H](CC=C)CC(=O)OC(C)(C)C)Cc1c[nH]c2ccccc12 | -6.8
CC1CCCCC12NC(=O)N(CC(=O)NCc1ccccc1)C2=O (stereo not given) | -1.1
Cc1ccc(C)c(Cn2nnc3c(=O)[nH]c(C4CCN(C(=O)c5ccco5)CC4)nc32)c1 | -6.7
CCN(CC)C(=O)C1CCCN(C(=O)CCn2nnnc2CN2CCOCC2)C1 (stereo not given) | ?
COc1cc(OC)cc(C(=O)Oc2c(CN3CCOCC3)cc(Cl)c3cccnc23)c1 | 98.9
O=C(COC(=O)/C=C/c1ccc(S(=O)(=O)N2CCOCC2)cc1)Nc1ccc(F)c(F)c1F | -3.6
CN(C)c1cccc(C(=O)Nc2ccc(S(=O)(=O)Nc3nccs3)cc2)c1 | 7.3
CC(NCC(=O)Nc1cc(S(=O)(=O)N2CCOCC2)ccc1N1CCOCC1)c1ccco1 (stereo not given) | -0.2
CS(=O)(=O)Nc1ccccc1C(=O)OCC(=O)NCc1cccs1 | -3.6
COc1ccc(S(=O)(=O)N(C)C[C@@H]2Oc3c(NS(C)(=O)=O)cccc3C(=O)N([C@@H](C)CO)C[C@H]2C)cc1 | -1.0
CCC(C)Sc1ccc([C@@H]2[C@@H]3C(=O)N(CC)C(=O)[C@@H]3[C@]3(C(=O)OC)CCCCN23)cc1 (stereo not given in full) | -1.2

The closing 2 compounds of the section before lead into the next:
SMILES | Mtb bLac sens
COc1ccc(S(=O)(=O)N(C)C[C@@H]2Oc3c(NS(C)(=O)=O)cccc3C(=O)N([C@@H](C)CO)C[C@H]2C)cc1 | -1.0
CCC(C)Sc1ccc([C@@H]2[C@@H]3C(=O)N(CC)C(=O)[C@@H]3[C@]3(C(=O)OC)CCCCN23)cc1 (stereo not given in full) | -1.2
c1ccc2c(c1)CCCc1cc(NCCN3CCOCC3)nnc1-2 | 45.8
Cc1coc2c(C)c3oc(=O)c(CCC(=O)NCCCN4CCCC4=O)c(C)c3cc12 | -4.5
O=C(Nc1cccc(F)c1)c1cc(S(=O)(=O)N2CCOCC2)ccc1N1CCCC1 | -1.2
COc1ccc(OC)c(NC(=O)CSc2nc3[nH]c(=O)cc(O)c3s2)c1 | -5.2
CC(=O)c1ccc(N(CC(=O)Nc2cc(C)on2)S(=O)(=O)c2ccc(C)cc2)cc1 | 0.8
CN(C(=O)COC(=O)CCCc1c[nH]c2ccccc12)c1c(N)n(Cc2ccccc2)c(=O)[nH]c1=O | 4.1
Cc1[nH]c(SCC(=O)c2c(N)n(C)c(=O)n(C)c2=O)nc1Cc1ccccc1 | -7.9
Cc1cc(C(=O)N/N=C/c2cccc3ccccc23)c(C)o1 | -4.5
C#CCOCCOCCOCCNc1nc(N2CCN(C(=O)[C@H]([C@@H](C)CC)n3cc(CCCCN)nn3)CC2)nc(N2CCN(C(=O)[C@H](CCCCN)n3cc(CCCC)nn3)CC2)n1 | -9.5
C[C@@H](OC(=O)c1[nH]cnc1C(=O)N1CCc2ccccc2C1)c1ccccc1 | -4.4
Cc1ccc(C)c(C(=O)COC(=O)CN2C(=O)C3C4C=CC(C4)C3C2=O)c1 (stereo not given) | -5.4
C=CCNc1nc(C(=O)OCC(=O)N(Cc2ccccc2)C(C)C)cs1 | -8.0
CC(NC(=O)c1ccc(S(=O)(=O)Nc2ccccc2Cl)cc1)c1ccncc1 (stereo not given) | -4.6
COc1ccc(SCCN2CC[C@@H](NC(=O)OCc3ccccc3)CCC2=O)cc1 | 29.7
CCNCC(=O)Nc1c(C)cccc1C | 3.3
O=C(Nc1cccnc1)c1cc(-c2ccc(Br)cc2)nc2ccccc12 | 66.0
CN(C(=O)COC(=O)c1cncc(Br)c1)C1CCCCC1 | 2.6
COc1ccccc1/C=C/C(=O)OCC(=O)NC1CCCCCC1 | 4.2
O=C(NCc1ccccc1)C(c1c(F)cccc1Cl)N(C(=O)c1csnn1)C1CC1 (stereo not given) | -16.8
OC(c1cc(C(F)(F)F)nc2c(C(F)(F)F)cccc12)C1CCCCN1 (stereo not given) | 99.5
COc1ccc(C(=O)Nc2ccc(NC(C)=O)cc2)cc1S(=O)(=O)N(C)Cc1ccccc1 | -2.0
COc1ccc(CN(C)CC(=O)NC(=O)Nc2ccccc2F)cc1 | -1.1
COc1cccc(-c2ncc3ccccc3c2COC(=O)c2cccc(Br)c2)c1 | 4.0
Cc1ccc(C)c(NC(=O)COC(=O)c2nc(Cl)ccc2Cl)c1 | -9.2
O=C(NCCN1CCN(c2ccccc2)CC1)Nc1cccc(Cl)c1 | -1.8
CC(C)C(NC(=O)c1ccc(F)cc1)C(=O)N1CCC1 (stereo not given) | -8.1
O=C(NCCN1CCCCC1)c1cccc2c1C(=O)c1ccc(N3CCCC3)cc1S2(=O)=O | 0.8
CCC(C(=O)OCc1csc(CC(=O)Nc2ccccc2C)n1)c1ccccc1 (stereo not given) | 41.2
COc1cccc(C(=O)OC(C)C(=O)Nc2ccc3c(c2)OCO3)c1 (stereo not given) | -7.7
CC(=O)Nc1ccc(NC(=O)C(C)OC(=O)CC23CC4CC(CC(Br)(C4)C2)C3)cc1 (stereo not given) | -1.8
CCOC(=O)[C@H]1[C@H]2COc3ccc(Cl)cc3[C@@H]2N2C(=O)CN(Cc3ccc(OC)cc3)C(=O)[C@@]12C | -1.4
COc1ccc(C2(C)NC(=O)N(CC(=O)Nc3ccc4c(c3)CCC4)C2=O)cc1OC (stereo not given) | -9.3
CCOc1ncccc1C(=O)Nc1cc(S(=O)(=O)N2CCCCC2)ccc1Cl | 2.5
COc1cccc(NC(=O)COC(=O)C2=NN(c3ccccc3)C(=O)CC2)c1 | -4.4
Cc1ccc(NC2CCCN(C(=O)CCn3nccc3C)C2)cc1C (stereo not given) | -8.1
Cc1ccccc1OCc1nnc(SCC(=O)Nc2ccc(N3CCOCC3)cc2)n1C | 2.8
CCc1ccc([C@@H]2CC=C(C(=O)O)[C@H](c3ccc(Br)cc3)N2S(=O)(=O)c2ccc(C)cc2)cc1 | -2.5
O=C(CNC(=O)c1ccc(Br)o1)OCc1ccc(Br)cc1 | -9.8
Cc1ccc(CCN2C(Nc3ccccc3)=NC[C@@H]2C)cc1 | -5.3
CCN(CC)c1cccc(OCC(=O)N2c3ccccc3CC2C)c1 (stereo not given) | -1.8

Single values from the results shown:
Mtb bLac sens with `CN(C(=O)COC(=O)CCCc1c[nH]c2ccccc12)c1c(N)n(Cc2ccccc2)c(=O)[nH]c1=O` stands at 4.1
Mtb bLac sens with `Cc1ccc(S(=O)(=O)Nc2ccccc2F)cc1C(=O)NCc1ccco1` stands at 0.2
Mtb bLac sens with `CCN(C(=O)COC(=O)c1ccccc1O)c1cccc2ccccc12` stands at -4.4
Mtb bLac sens with `CCOC(=O)[C@H]1[C@H]2COc3ccc(Cl)cc3[C@@H]2N2C(=O)CN(Cc3ccc(OC)cc3)C(=O)[C@@]12C` stands at -1.4
Mtb bLac sens with `C=C1C2C[C@@]3([C@@H]1O)[C@@H](C[C@@H]2O)[C@@]12C4[C@@H]3C[C@@H]1[C@@](C)(CC[C@@H]2O)CN4CC` stands at 2.9
Mtb bLac sens with `COc1ccc(C)cc1NC(=O)CSc1cccc[n+]1[O-]` stands at 0.5

The results go on:
SMILES | Mtb bLac sens
CCOc1ccc(NC(=O)C2CC(=O)N(CCc3ccc(OC)c(OC)c3)C2)cc1OCC (stereo not given) | -7.4
CCCCN1C(=O)C(=O)N(CC(=O)Nc2cc(Cl)ccc2OC)C1=O | 0.4
O=C(COC(=O)Cc1ccccc1F)NC(=O)NC1CCCC1 | 3.3
COc1ccc(C(C#N)N2N=C(C)CC2c2ccccc2)cc1OC (stereo not given) | -13.4
Cc1cc(Cl)ccc1C1=CC(=O)C[C@H](c2ccc(F)cc2)C1 | 9.5
NS(=O)(=O)c1ccc(NC(=O)COC(=O)C2CC2)cc1 | 2.4
Cc1cccc(NC(=O)CCS(=O)(=O)c2ccccc2)n1 | -0.1
Cc1ccc(S(=O)(=O)N2[C@@H](c3cccc(Cl)c3)C(C(=O)O)=CC[C@H]2c2ccc3c(c2)OCO3)cc1 | -2.0
C[C@H](CO)N1C[C@H](C)[C@@H](CN(C)S(C)(=O)=O)Oc2ccc(N(C)C)cc2C1=O | -1.7
CCN1CCc2nc(N)oc2CC1 | 4.0
CC1CN(S(=O)(=O)c2ccc(C(=O)N3CCc4ccccc43)cc2)CC(C)O1 (stereo not given) | -1.6
O=C(OCC(=O)N1CCN(C(=O)c2ccco2)CC1)c1ccc(Cl)cc1 | 11.7
O=C(NC1=NCCS1)c1ccc(F)c(S(=O)(=O)N2CCOCC2)c1 | 3.0

Some of the entries so far, as comma-separated lines:
SMILES,Mtb bLac sens
Cc1cccc(NC(=O)CCS(=O)(=O)c2ccccc2)n1,-0.1
COc1ccc(C(C#N)N2N=C(C)CC2c2ccccc2)cc1OC (stereo not given),-13.4
O=C(COC(=O)Cc1ccccc1F)NC(=O)NC1CCCC1,3.3
